# ALR inh: inhibitors of human sulfhydryl oxidase ALR | hit rate 3.8% among 290,000 | inhibition, % (concentration not given with the values) | AID 485317 | purified ALR, DTT oxidation, H2O2 HRP-luminol luminescence | P55789;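 active means mean and each replicate at 75% or more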;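 further: stock transfer was 7.5 nL into about 7.5 µL; 0% = neutral wells and 100% = wells with inactivated enzyme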
# LANA-H2A inh: blocks KSHV LANA binding to histone H2A/H2B | Q9QR71 | cell-free LANA-H2A/H2B peptide, fluorescence polarization | inhibition, % (no concentration beside the values) | hit rate 0.6% among 320,000 | AID 2629; in the data active means inhibition mostly above about 10%, no sharp cut-off; inactive means mostly below about 6.7%;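 further: stock transfer was 7.5 nL into about 10 µL; 0% = median of vehicle wells and 100% = median of positive control wells; one replicate is shown; the record names a cut of 25% in any replicate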
# Target sequence (Q9QR71 whole entry, looked up): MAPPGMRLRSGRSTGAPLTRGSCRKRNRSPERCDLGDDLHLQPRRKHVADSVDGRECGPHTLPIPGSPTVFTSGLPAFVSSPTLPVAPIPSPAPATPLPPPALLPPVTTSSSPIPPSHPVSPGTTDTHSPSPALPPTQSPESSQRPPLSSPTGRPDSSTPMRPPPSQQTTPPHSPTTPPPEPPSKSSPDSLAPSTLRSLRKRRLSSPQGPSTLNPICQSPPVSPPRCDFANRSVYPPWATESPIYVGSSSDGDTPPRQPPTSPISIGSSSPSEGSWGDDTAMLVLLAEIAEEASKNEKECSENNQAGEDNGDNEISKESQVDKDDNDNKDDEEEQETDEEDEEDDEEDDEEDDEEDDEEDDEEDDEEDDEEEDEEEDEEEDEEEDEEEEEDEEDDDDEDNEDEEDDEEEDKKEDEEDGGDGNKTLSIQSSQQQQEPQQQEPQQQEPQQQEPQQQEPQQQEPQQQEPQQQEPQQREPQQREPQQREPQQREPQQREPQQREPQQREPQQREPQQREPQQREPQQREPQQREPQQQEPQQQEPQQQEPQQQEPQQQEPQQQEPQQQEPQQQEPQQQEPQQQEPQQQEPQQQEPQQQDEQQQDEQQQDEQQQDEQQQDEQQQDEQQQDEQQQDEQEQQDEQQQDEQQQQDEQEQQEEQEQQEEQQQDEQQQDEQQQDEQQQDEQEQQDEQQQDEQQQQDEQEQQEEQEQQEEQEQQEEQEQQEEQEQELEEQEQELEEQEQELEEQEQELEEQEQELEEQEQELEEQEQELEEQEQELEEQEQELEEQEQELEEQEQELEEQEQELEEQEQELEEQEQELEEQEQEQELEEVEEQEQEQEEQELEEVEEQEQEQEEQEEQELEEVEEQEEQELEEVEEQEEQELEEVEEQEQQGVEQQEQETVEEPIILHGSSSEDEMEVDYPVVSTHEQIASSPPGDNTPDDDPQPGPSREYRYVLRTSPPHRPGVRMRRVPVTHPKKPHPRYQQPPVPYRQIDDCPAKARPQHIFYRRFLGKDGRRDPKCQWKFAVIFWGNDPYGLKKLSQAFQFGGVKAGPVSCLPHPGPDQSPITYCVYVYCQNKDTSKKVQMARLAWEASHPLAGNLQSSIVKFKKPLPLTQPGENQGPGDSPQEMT
# FGF22 binding: binders of recombinant human FGF22 by thermal shift; Q9HCT0; SYPRO orange fluorescence; percent of sucrose octasulfate shift, DMSO zero; calls only at 9.99 µM; hit rate 1.5% among 340,000;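 active means melting point raised past a set limit in the mean and every replicate; three in four hits are not shown here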
# E coli growth: inhibitors of Escherichia coli growth | OD600, 23 h; hits give low values | OD600 absorbance (test concentration not listed) | AID 1053175 | hit rate 0.21% among 330,000;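 active means OD600 absorbance below the run mean of sample wells minus 3.6 SD, in any replicate, cut at about 0.56 in these data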;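 further: stock transfer was 300 nL into about 60 µL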
# Beta2AR agonist: activates human beta-2 adrenergic receptor causing internalization. P07550. Am2.2-beta2AR cells, FAP receptor internalization, flow cytometry; reference of the scale not given here. response, % (concentration not given with the values). hit rate 0.43% among 340,000;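 active means response above a set limit, near 3 SD of response in nonfluorescent compounds, cut at about 42% in these data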;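 further: stock transfer was 100 nL into about 11 µL; a reference agonist was the positive control; negative values mostly stem from fluorescent compounds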
# UCH37 inh: inhibitors of human deubiquitinating enzyme UCH37; purified proteasome/UCH37, Ub-AMC cleavage fluorescence; Q9Y5K5; hit rate 0.33% among 330,000; AID 588478; inhibition, % (no concentration beside the values);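 active means mean of two replicates above 20%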;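 further: 0% = compound-free wells with enzyme and 100% = wells lacking proteasome; stock transfer was 100 nL into about 20 µL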
#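 Material: Human UCH37 enzyme supplied as purified proteasome complex | Schedule: 30 min compound-proteasome preincubation then 25 min substrate reaction, room temperature | Detection: AMC fluorescence from Ub-AMC cleavage, excitation 355 nm, emission 460 nm | Benchmarks: Wells without proteasome as full block, compound-free enzyme plus substrate as uninhibited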
# HNF4A DNA FP: change in binding of human HNF4 alpha to DNA; activity change, % at 10 µM; P41235; AID 1224865; hit rate 0.3% among 360,000; HNF4a-FITC DNA binding, fluorescence polarization, 1 h; in the data active means activity change above about 30%, passing the limit was not always enough;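 further: controls were the assay level and a saturating level of protein; the project sought stronger binding though the title names inhibitors; some compounds called inactive have numbers as strong as hits; positive values seem to mean higher polarization but the record does not say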
# An asterisk follows results filed as active; i = inactive; · = not tested or not shown. An excerpt. The share of hits here may be higher or lower than overall.
SMILES,ALR inh,LANA-H2A inh,FGF22 binding,E coli growth,Beta2AR agonist,UCH37 inh,HNF4A DNA FP
O=C(CCCC(=O)N(c1ccc2c(c1)OCCO2)C(C(=O)NC1CCCCC1)c1ccc(F)cc1)Nc1ccccn1 (centres undefined),-1,-3.1,·,0.7,11,1.3,-0.4
CC(C)(C)n1nnnc1C(c1cccs1)N(Cc1cccnc1)CC1CCCO1 (centres undefined),-2,-2.2,·,0.69,0,-0.3,-0.1
COc1ccc2c(c1)cc(C)c1nnc(SCC(=O)N3CCN(C(=O)c4ccco4)CC3)n12,-3,1.4,·,0.71,·,-1.9,·
c1ccc(-c2cc(-c3ccccc3)on2)cc1,1,-1.0,i,0.72,1,-2.6,4.9
CN(Cc1ccccc1)S(=O)(=O)c1nnc(NC(=O)c2ccccc2)s1,24,1.9,i,0.74,11,2.6,2.4
O=C(NCC1CCCO1)c1ccc2c(c1)N(Cc1ccc(F)cc1)CCS2 (centres undefined),99*,-3.2,i,0.69,-6,i,4.3
CSc1cccc(NC(=O)c2nnn(Cc3ccccc3)c2N)c1,-7,1.3,·,0.69,-5,3.2,0.5
O=C(COC(=O)c1ccccc1Br)NCC1CCCO1 (centres undefined),0,-0.2,i,0.68,2,-0.1,0.4
CCOc1ccccc1NC(=O)C1Cc2ccccc2CN1S(C)(=O)=O (centres undefined),-16,0.8,·,0.68,-2,2.3,0.6
CN(C)CCCN(C(=O)c1ccc(Cl)s1)c1nc2cc3c(cc2s1)OCO3,2,6.6,i,·,23,·,-0.2
Cn1c(=O)c2c(nc(CN3CCN(CCO)CC3)n2Cc2cccc3ccccc23)n(C)c1=O,-9,-6.9,·,0.69,11,4.4,-0.5
O=C(NCCCc1ccccc1)c1ccc(CS(=O)Cc2ccc(Cl)cc2)o1 (centres undefined),2,2.2,i,0.65,-7,1.3,5.4

# Part of the list above, bar-delimited:
Compound | ALR inh | LANA-H2A inh | FGF22 binding | E coli growth | Beta2AR agonist | UCH37 inh | HNF4A DNA FP
CN(C)CCCN(C(=O)c1ccc(Cl)s1)c1nc2cc3c(cc2s1)OCO3 | 2 | 6.6 | i | · | 23 | · | -0.2
Cn1c(=O)c2c(nc(CN3CCN(CCO)CC3)n2Cc2cccc3ccccc23)n(C)c1=O | -9 | -6.9 | · | 0.69 | 11 | 4.4 | -0.5
O=C(NCCCc1ccccc1)c1ccc(CS(=O)Cc2ccc(Cl)cc2)o1 (centres undefined) | 2 | 2.2 | i | 0.65 | -7 | 1.3 | 5.4

# (next part)
SMILES,ALR inh,LANA-H2A inh,FGF22 binding,E coli growth,Beta2AR agonist,UCH37 inh,HNF4A DNA FP
CC1=C(c2ccccc2)SC2=NCCN21,9,0.1,i,0.6,4,2.0,0.3
COc1cc2c3nnc(-c4ccc(F)cc4)c-3cn(Cc3ccccc3)c2cc1OC,-8,9.0,i,·,-656,·,12
COc1ccccc1-c1nn(Cc2ccccc2)cc1C(=O)N1CCN(c2ncccn2)CC1,2,-0.2,i,0.69,-14,1.2,-1.0
Cc1nc(N2CCC(C(N)=O)CC2)c2nnn(Cc3ccccc3)c2n1,15,-4.1,·,0.73,-10,1.5,4.0
COc1ccccc1N1CCN(c2cc(=O)n(-c3ccccc3Cl)c(=O)[nH]2)CC1,25,-1.6,i,0.7,2,1.4,0.4
O=C1c2ccccc2C(=O)N1CCCCc1cn(C[C@H]2CC[C@H](Cn3cc(CCCCN4C(=O)c5ccccc5C4=O)nn3)O2)nn1,·,·,i,0.7,13,2.3,5.3
COc1ccc(OCC(=O)NNC(=O)Cc2coc3cc(OC)ccc23)cc1,-8,-1.3,·,0.69,-11,1.5,-4.3
CC(OC(=O)c1ccncc1)C(=O)NC1CCCC1 (centres undefined),-3,-5.3,i,0.68,0,2.8,2.6
COc1cc(C(=O)OCC(=O)c2cc(C)n(C)c2C)cc(OC)c1OC,·,-0.8,·,0.68,-5,0.1,-0.2
O=C(CN1C(=O)C2CCCCC2C1=O)Nc1nc(-c2ccc(F)cc2)cs1 (centres undefined),·,-0.9,·,0.66,5,2.5,-2.7
CSCCC(NC(=O)C1CCC(C)CC1)C(=O)NCc1ccco1 (centres undefined),3,-4.8,·,0.65,3,2.2,-2.8
Clc1ccc(-c2nc(-c3ccncc3)no2)c(Cl)c1,7,-1.5,i,0.64,-18,-0.6,3.1
CCCOc1ccc(Cn2cnc3ccccc32)cc1,-29,-3.4,·,0.57,-13,2.3,-0.7
NC(=O)C1(N2CCCCC2)CCN(CC(=O)Nc2ccccc2-c2ccccc2)CC1,3,1.1,i,0.63,5,1.0,-0.1
CCOC(=O)/C=C1/SCC(=O)N1CC(=O)NC12CC3CC(CC(C3)C1)C2,·,·,i,0.7,5,3.9,0.8
CNc1ncc(C(=O)c2ccc(Cl)c(Cl)c2)s1,·,2.1,·,0.67,-4,0.9,4.4
CCC1CCC2(CC1)NC(=O)N(CC(=O)Nc1cccc(S(=O)(=O)N(C)c3ccccc3)c1)C2=O (centres undefined),-4,-2.0,i,0.68,16,4.7,0.8
Cc1cc(/C=N/NC(=O)C(O)(c2ccccc2)c2ccccc2)c(C)n1-c1cccc(C(=O)O)c1,·,-1.0,i,·,-1,·,-6.1
Cc1nn(-c2ccc(F)cc2)c(C)c1NS(=O)(=O)c1ccc2ccccc2c1,-6,7.4,·,0.66,-9,3.9,-0.7
COc1ccc2ccn(C)c2c1,8,0.8,i,0.64,1,-0.2,8.9
CN1CCCN(C(=O)C2CCC(C(=O)N3CCCN(C)CC3)CC2)CC1 (centres undefined),·,·,i,0.71,4,-1.9,8.8
O=C1c2cccnc2Oc2ccc(Cl)cc2N1Cc1ccc(F)cc1,42,-2.2,·,0.72,-1,2.4,1.9
COc1ccc(-n2ncc3c2CC(C)(C)CC3NC(=O)c2ccc(OC)o2)cc1 (centres undefined),-21,5.4,i,0.7,6,0.4,0.7
Cc1cccc(N2CC(C)Cn3c2nc2c3c(=O)n(CC(=O)OCc3ccccc3)c(=O)n2C)c1 (centres undefined),1,0.5,·,0.7,-3,2.2,-11
COc1cc(C)ccc1OCc1cc(C(=O)NCc2ccncc2)no1,-6,-2.6,i,0.71,1,1.6,-4.3
COCCN(CCOC)c1ncnc2c1cnn2-c1ccccc1,-5,-1.2,i,0.7,1,4.6,-2.7
CC(C(=O)NCCS(=O)(=O)c1ccc(Br)cc1)S(=O)(=O)c1ccc(Cl)cc1 (centres undefined),0,-5.3,i,0.65,-7,1.7,1.0
COc1ccc(Cl)cc1NS(=O)(=O)c1cccc(C(=O)NCC2CCCO2)c1 (centres undefined),1,-1.5,i,0.68,-10,1.1,0.6
Cc1ccccc1-c1nc(S(=O)(=O)c2ccc(Cl)cc2)c(NCCN2CCOCC2)o1,-2,-1.2,·,0.74,-19,-10,-0.1
CCOC(=O)c1cc(-c2ccco2)nc2c1c(C)nn2-c1cccc(Cl)c1,-7,2.6,·,0.75,12,-358,-8.7
O=C(Nc1ccc(Oc2ccccc2)cc1)N[C@@H](Cc1ccccc1)C(=O)O,59,-1.8,i,0.64,4,5.0,4.9
CCc1ccc(S(=O)(=O)Nc2cc(SCC(=O)O)c(O)c3ccccc23)cc1,45,2.6,i,0.65,13,6.4,-0.2
CCOC(=O)CNC(=O)Cn1cnc2sc(C)c(S(=O)(=O)N3CCOCC3)c2c1=O,1,1.0,i,0.67,9,1.5,1.4
CC1CN(C(=O)COC(=O)CSc2ccc(C(N)=O)cc2[N+](=O)[O-])CC(C)O1 (centres undefined),-3,-3.6,i,0.68,-2,0.0,0.0
Cc1nn(C)cc1/C=N/NC(=O)Cn1nnc(N)n1,-2,-7.4,i,·,-10,·,-1.8
Cc1nc(-c2ccccc2)ccc1C(=O)O,-2,-2.2,·,0.72,6,-5.0,4.8
CC(Nc1ccccc1)C(=O)Nc1ccc(F)cc1 (centres undefined),43,0.6,·,0.7,-1,2.7,2.8
CCc1ccccc1OCC(=O)Nc1nc(-c2cccnc2)cs1,-29,6.7,i,0.67,-1,-2.1,1.2
O=C(Cc1ccccc1)c1ccc(N2CCOCC2)cc1,·,·,i,·,-1,·,5.1
CC(C)CCNC(=O)CN(C)S(=O)(=O)c1cccc2nsnc12,-1,-2.6,·,0.68,0,5.4,-1.8
COc1cc(C(=O)NCCSc2ccc(Cl)cc2)cc(OC)c1OC,1,2.0,i,0.65,5,5.3,-0.5
Cc1ccc(C)c(NC(=O)CCC(=O)N/N=C/c2ccc[nH]2)c1,-5,-3.4,·,·,-3,·,-0.1
O=CNc1ccc(S(=O)(=O)NCc2ccccc2)cc1,-1,-2.5,·,0.59,18,0.9,3.4
Cc1ccc2c(COC(=O)C3CSC4(C)CCC(=O)N34)cc(=O)oc2c1C (centres undefined),1,-4.4,i,0.71,0,2.8,0.9
O=c1c2cc(NC(=S)NC3CCCC3)ccc2nc2n1CCCCC2,6,7.6,i,0.73,-3,3.1,-1.0
O=C(NCCCN1CCOCC1)c1ccc2nc(Cc3ccccc3F)oc2c1,-4,-0.4,i,0.67,-2,-1.0,2.7
Cc1ccc(S(=O)(=O)/N=C(\N)Nc2nc(C)c3cc(C)ccc3n2)cc1,-2,0.4,·,·,-5,·,1.7
COc1ccc(C2c3ccc(O)cc3Oc3ncn(CCN4CCOCC4)c(=N)c32)cc1 (centres undefined),·,-3.1,i,0.63,-20,2.6,-4.9

# Quoted from the listing.
# Value of CC(C(=O)NCCS(=O)(=O)c1ccc(Br)cc1)S(=O)(=O)c1ccc(Cl)cc1 (centres undefined) in UCH37 inh: 1.7
# Value of O=C(COC(=O)c1ccccc1Br)NCC1CCCO1 (centres undefined) in E coli growth: 0.68
# Value of c1ccc(-c2cc(-c3ccccc3)on2)cc1 in UCH37 inh: -2.6
# Value of Cc1cccc(N2CC(C)Cn3c2nc2c3c(=O)n(CC(=O)OCc3ccccc3)c(=O)n2C)c1 (centres undefined) in ALR inh: 1
# Value of CC1CN(C(=O)COC(=O)CSc2ccc(C(N)=O)cc2[N+](=O)[O-])CC(C)O1 (centres undefined) in LANA-H2A inh: -3.6

# (more compounds)
SMILES,ALR inh,LANA-H2A inh,FGF22 binding,E coli growth,Beta2AR agonist,UCH37 inh,HNF4A DNA FP
CCC(=O)NCCc1nc2cc(NC(=O)c3ccco3)ccc2n1C,-3,-8.1,i,0.68,-4,0.9,1.0
CC(CCc1ccccc1)OS(N)(=O)=O (centres undefined),-2,-6.2,i,0.66,0,-0.3,0.4
COc1ccc(-c2cc(C(=O)NCc3ccco3)c3ccccc3n2)cc1OC,-1,-2.4,i,0.71,6,-290,-0.2
Cc1ccc(NC(=O)Cn2nc(C(=O)O)c3ccccc3c2=O)cc1S(=O)(=O)N1CCCCCC1,·,·,i,0.67,7,3.8,-1.8
Cn1c(CN2CCCC2)nc2cc(NC(=O)c3cccs3)ccc21,-66,-0.3,i,0.71,5,3.2,4.3
O=C(Cc1ccc(Br)cc1)Nc1cccc(Cl)c1,-1,1.6,i,0.67,-9,0.9,-3.6
Cc1ccc(Cl)c2c1NC(=O)C2(O)CC(=O)c1ccc(F)cc1 (centres undefined),4,-0.9,·,0.71,-1,3.9,-1.5
O=C(NCc1ccco1)c1ccc(Cn2c(=O)c3ccccc3n(Cc3cccc(Cl)c3)c2=O)cc1,·,-0.6,·,0.8,6,-0.6,-7.3
O=C(NCc1ccco1)c1ccc2c(=O)n(-c3ccccc3)c(=O)n(Cc3cccc(F)c3)c2c1,-18,2.1,i,0.74,7,5.6,-2.3
COc1cc(C(=O)NCc2nnc(SCC(=O)Nc3nccs3)o2)cc(OC)c1OC,2,0.8,i,0.66,2,-1.4,-1.6
O=C(c1ccc([N+](=O)[O-])cc1)N(c1ccccn1)c1ccccn1,-87,0.3,i,0.67,-5,1.4,2.5
Cc1n[nH]c(C)c1CCCCOc1ccccc1[N+](=O)[O-],-3,0.7,i,0.65,-4,6.1,-0.1
OCC[C@@H]1C[C@H](O)[C@@H](O)[C@]2(OCc3ccccc32)O1,2,1.6,i,·,1,2.0,-4.1
CCCC(=O)Nc1cc(-c2nn(C)c(=O)c3ccccc23)ccc1N1CCCCC1,-7,-1.1,·,0.68,-14,-7.9,-1.9

# Just E coli growth, for some of the entries so far:
SMILES | E coli growth
Cc1nc(-c2ccccc2)ccc1C(=O)O | 0.72
O=CNc1ccc(S(=O)(=O)NCc2ccccc2)cc1 | 0.59

# Screening results: PubChem BioAssay, several laboratories
